# CatS block – blocks human cathepsin S protease activity; recombinant cathepsin S, AMC dipeptide fluorescence, pooled mixtures; inhibition, %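 (tested at 5 µM per compound within 10-compound mixtures)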; 0.06% of 62,000 active; AID 501; in the data active means inhibition above about 32%, passing the limit was not always enough;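 further: 0% = enzyme without compound and 100% = blank without enzyme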
# CatL block – inhibitors of human cathepsin L; P07711; purified cathepsin L, fluorogenic substrate, fluorescence; inhibition, %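 (tested at 10 µM)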; 0.17% of 58,000 active; AID 460; in the data active means inhibition above about 45%;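 further: 0% = enzyme with no compound and 100% = no enzyme blank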
# HER2 expr 66K – lowers expression of human Her2 kinase. P04626. SKBR-3 HER2 protein level, AlphaScreen, 18-24 h; hits give low values. HER2 level % of control, % at 10 µM. 0.69% of 65,000 active. AID 645;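 active means HER2 level under 5% of the carrier-only control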;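 further: 100% = DMSO carrier and 0% = 500 nM PU-H71 HSP90 inhibitor; lower value means stronger loss of Her2 protein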
# Target sequence (P04626 whole entry, looked up): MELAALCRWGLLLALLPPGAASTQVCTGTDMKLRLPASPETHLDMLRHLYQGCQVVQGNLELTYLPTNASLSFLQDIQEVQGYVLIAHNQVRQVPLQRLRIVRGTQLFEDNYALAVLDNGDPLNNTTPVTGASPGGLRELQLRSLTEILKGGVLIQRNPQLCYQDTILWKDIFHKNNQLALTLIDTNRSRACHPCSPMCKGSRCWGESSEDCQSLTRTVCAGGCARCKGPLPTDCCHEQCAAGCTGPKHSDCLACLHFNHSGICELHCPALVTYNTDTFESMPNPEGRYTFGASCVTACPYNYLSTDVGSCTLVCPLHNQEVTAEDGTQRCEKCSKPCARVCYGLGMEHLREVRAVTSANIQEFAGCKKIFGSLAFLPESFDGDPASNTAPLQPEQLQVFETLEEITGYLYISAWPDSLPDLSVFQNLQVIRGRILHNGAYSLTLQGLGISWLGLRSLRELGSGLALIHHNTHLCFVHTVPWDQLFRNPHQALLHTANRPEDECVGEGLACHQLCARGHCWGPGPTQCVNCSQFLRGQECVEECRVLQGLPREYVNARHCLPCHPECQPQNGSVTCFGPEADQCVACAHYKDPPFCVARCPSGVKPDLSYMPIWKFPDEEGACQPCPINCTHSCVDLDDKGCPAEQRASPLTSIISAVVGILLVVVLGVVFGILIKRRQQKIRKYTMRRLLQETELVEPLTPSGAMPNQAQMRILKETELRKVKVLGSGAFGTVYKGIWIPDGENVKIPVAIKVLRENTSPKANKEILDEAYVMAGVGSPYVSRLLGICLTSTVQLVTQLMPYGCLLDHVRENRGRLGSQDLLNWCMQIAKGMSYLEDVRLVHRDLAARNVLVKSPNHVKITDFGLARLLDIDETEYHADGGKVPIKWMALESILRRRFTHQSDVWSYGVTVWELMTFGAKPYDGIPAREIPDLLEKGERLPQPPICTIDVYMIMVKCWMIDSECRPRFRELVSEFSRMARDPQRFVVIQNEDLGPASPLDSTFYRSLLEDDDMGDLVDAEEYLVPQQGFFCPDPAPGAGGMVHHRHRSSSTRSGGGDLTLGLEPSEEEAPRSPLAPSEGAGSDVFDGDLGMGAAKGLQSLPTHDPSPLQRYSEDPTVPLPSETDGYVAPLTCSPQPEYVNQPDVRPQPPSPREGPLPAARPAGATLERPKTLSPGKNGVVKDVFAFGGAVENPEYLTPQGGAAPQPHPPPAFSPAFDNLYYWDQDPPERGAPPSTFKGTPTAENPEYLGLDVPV
# CatB mixtures – inhibitors of human cathepsin B in compound mixtures; P07858; Purified cathepsin B, AMC dipeptide fluorescence; inhibition, %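 (ten-compound pools at 5 µM per compound and 50 µM total)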; 0.06% of 62,000 active; AID 488; in the data active means inhibition above about 22%, passing the limit was not always enough;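 further: 0% = enzyme without compound and 100% = no enzyme blank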
# CatG inh – inhibitors of human cathepsin G. 0.2% of 62,000 active. P08311. purified enzyme, AMC-tetrapeptide fluorescence, pooled mixtures. inhibition, % at 5 µM (by protocol);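 active means inhibition above 20% in each of the two mixture wells holding the compound; inactive means inhibition of 20% or less in either well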;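 further: 0% = enzyme control without mixture and 100% = blank lacking enzyme; strong numbers were not always called active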
# CatB block – human cathepsin B inhibition. purified cathepsin B, fluorogenic substrate, fluorescence. inhibition, %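 (tested at 10 µM)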. 0.1% of 63,000 active. AID 453; in the data active means inhibition above about 21%;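 further: 0% = enzyme with no compound and 100% = no enzyme blank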
# * hit, by the source's call; i = inactive; x = no result given. Some of the compounds tested; the hit share may differ from the screen's.
SMILES	CatS block	CatL block	HER2 expr 66K	CatB mixtures	CatG inh	CatB block
CCCN1CCN(C(=O)CCCNC(=O)Cn2cnc3sc(C)c(C)c3c2=O)CC1	16	-1	82	1	-2	2
Clc1cccc(Nc2ncnc3c2cnn3-c2ccccc2)c1	4	-5	21	3	-1	-2
COc1nc(OC)nc(N2CCC(C(=O)NC3CCCCCC3)CC2)n1	11	2	105	8	5	6
CN1C(=O)CS(=O)c2ccc(C(=O)NC3CC3)cc21 (configuration not stated)	2	7	100	3	8	0
COc1nc(NCCc2ccc(OC)c(OC)c2)nc(OC)n1	-9	x	113	0	-2	6
CCn1c(COc2cccc(C)c2)nnc1SCC(=O)Nc1cccc(C(=O)O)c1	-4	-5	100	0	-9	-2
C=CCNC(=O)C1CC(c2cccc(OC)c2)=NO1 (configuration not stated)	-4	-1	111	2	8	2
COc1ccc(OC)c(-n2c(-c3cccc(O)c3)n[nH]c2=S)c1	-4	2	126	1	14	5
C=CCn1c(COc2ccccc2)nnc1SCC(=O)Nc1ccc(S(N)(=O)=O)cc1	10	3	117	4	10	4
CCOC(=O)c1cnc(SCC)[nH]c1=O	-3	-1	156	7	-6	-1
N#Cc1ccc(NC(=O)C2CC(c3ccc(F)cc3)=NO2)cc1 (configuration not stated)	-1	-1	94	1	0	-2
COc1ccc(CNc2nc(-c3cccnc3)nn2C(=O)c2ccco2)cc1	-2	-6	84	-7	12	1

# Retrieved one by one from the list above (7):
SMILES	CatS block	CatL block	HER2 expr 66K	CatB mixtures	CatG inh	CatB block
COc1nc(OC)nc(N2CCC(C(=O)NC3CCCCCC3)CC2)n1	11	2	105	8	5	6
CN1C(=O)CS(=O)c2ccc(C(=O)NC3CC3)cc21 (configuration not stated)	2	7	100	3	8	0
Clc1cccc(Nc2ncnc3c2cnn3-c2ccccc2)c1	4	-5	21	3	-1	-2
N#Cc1ccc(NC(=O)C2CC(c3ccc(F)cc3)=NO2)cc1 (configuration not stated)	-1	-1	94	1	0	-2
COc1ccc(CNc2nc(-c3cccnc3)nn2C(=O)c2ccco2)cc1	-2	-6	84	-7	12	1
C=CCNC(=O)C1CC(c2cccc(OC)c2)=NO1 (configuration not stated)	-4	-1	111	2	8	2
CCOC(=O)c1cnc(SCC)[nH]c1=O	-3	-1	156	7	-6	-1

# 4 entries from above, ordered by the number in CatL block, largest number first:
SMILES	CatS block	CatL block	HER2 expr 66K	CatB mixtures	CatG inh	CatB block
CN1C(=O)CS(=O)c2ccc(C(=O)NC3CC3)cc21 (configuration not stated)	2	7	100	3	8	0
N#Cc1ccc(NC(=O)C2CC(c3ccc(F)cc3)=NO2)cc1 (configuration not stated)	-1	-1	94	1	0	-2
CCn1c(COc2cccc(C)c2)nnc1SCC(=O)Nc1cccc(C(=O)O)c1	-4	-5	100	0	-9	-2
COc1ccc(CNc2nc(-c3cccnc3)nn2C(=O)c2ccco2)cc1	-2	-6	84	-7	12	1

# (more compounds)
SMILES	CatS block	CatL block	HER2 expr 66K	CatB mixtures	CatG inh	CatB block
CSc1nc(-c2ccco2)nn1C(=O)c1ccco1	2	x	108	6	23*	-5
Cn1c(C(=O)NCC2CCCO2)cc2c(=O)n3ccccc3nc21 (configuration not stated)	-15	-135	113	-6	-11	-7
Cc1ccc(OCc2nnc(SCC(=O)Nc3ccc4c(c3)OCCO4)n2Cc2ccco2)cc1	7	-6	94	2	12	-2
CCCCn1nnnc1NCc1cccs1	5	15	81	1	1	2
O=C(NCc1cccnc1)C1CC(c2ccc(F)cc2)=NO1 (configuration not stated)	-3	2	110	5	12	0
CCOC(=O)c1cc2nc(Nc3ccc(OC)cc3)sc2s1	-3	-14	62	7	11	5
COCCCn1c(=N)c(C(=O)NCC2CCCO2)cc2c(=O)n3ccccc3nc21 (configuration not stated)	-31	-50	112	-17	-42	-19
Cc1[nH]c(=O)[nH]c(=O)c1S(=O)(=O)NCCOC12CC3CC(CC(C3)C1)C2	5	5	75	3	5	3
CCCNC(=O)CCC(=O)Nc1ncc(-c2ccc(C)cc2)n1C	-7	-9	94	0	-4	5
COC(=O)CSc1ncc(C#N)c(N)n1	3	8	92	4	8	3
Cc1nn(-c2ccc(Cl)cc2)c2[nH]c(=O)c(CNCc3ccc4c(c3)OCO4)cc12	14	8	-19*	7	-9	8
CCOC(=O)N1CCN(C(=O)CN(C2CCCCC2)S(C)(=O)=O)CC1	-36	-8	90	-2	-21	4
Cc1nc2sc3c(c2c2nnc(SCC(=O)NCc4ccco4)n12)CCCC3	32	3	124	0	3	-2
N#CCCN(CCC#N)C(=O)c1ccc2c(c1)OCO2	1	-8	99	5	11	5
COC(=O)c1ccc(C2CC(=O)NC3=C2C(=O)CCC3)cc1 (configuration not stated)	1	0	84	5	9	3
Cc1nc2ccc(NC(=O)NCc3ccco3)cc2s1	13	4	100	-2	7	0
O=C(NCCN1CCOCC1)c1cc2c(=O)n3ccccc3nc2n1Cc1ccccc1	-12	i	108	-14	-20	-24
O=C(c1ccc2c(c1)OCO2)N1CCN=C1SCc1ccccc1	24	x	88	-1	-3	-2
COc1cc(C)c(S(=O)(=O)NCc2ccc3c(c2)OCO3)cc1C	0	x	92	5	10	-1
CCN(CC)S(=O)(=O)c1cc(C(=O)n2cccn2)c(Cl)cc1Cl	-13	15	93	-12	-15	0
Cc1ccnc(N2CCC(C(=O)NC3CCCCCC3)CC2)n1	-8	2	105	3	-9	4
Cn1c(-c2ccc3c(c2)OCO3)cnc1NC(=O)CCC(=O)NCCc1ccccc1	-5	12	79	2	12	3
Cc1cc(C)c(S(=O)(=O)Nc2cccnc2)c(C)c1	5	3	149	-9	12	0
CC(C)Sc1nc2sc3c(c2c2nnc(SCC(=O)NCc4ccco4)n12)CCCC3	2	32	52	-1	9	7
Cc1ccnc2nc(C(=O)N3CCN(S(=O)(=O)c4ccccc4)CC3)nn12	4	22	120	-2	0	2
O=C1CC(c2cccc(Br)c2)C2=C(CCCC2=O)N1 (configuration not stated)	7	4	76	-3	15	6
CC1CCN(C(=O)CSc2nnc(-c3ccc(S(=O)(=O)N4CCOCC4)cc3)n2C)CC1	16	-4	91	3	6	5

# Assay outcomes from PubChem BioAssay.
